# Source: PubChem (National Center for Advancing Translational Sciences (NCATS))
# HPGD inh = blocks human HPGD enzyme activity; Potency, µM, inactives show at the top dose activity change, negative = inhibition, hits mostly inhibitors; P15428; purified HPGD, NADH fluorescence kinetic, PGE2 substrate; 150,000 compounds, 4.3% hits; AID 894; active = well fitted inhibition curve with a large enough effect (not every such curve was filed as active); inconclusive = small, poorly fitted or top-dose-only effect, or another doubt; inactive = no such curve, though single readings can be large or run the other way;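 note: top concentration of the series not given in the record; plate controls included wells without enzyme; inactives centre near -10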
# Target sequence (P15428 whole entry, looked up): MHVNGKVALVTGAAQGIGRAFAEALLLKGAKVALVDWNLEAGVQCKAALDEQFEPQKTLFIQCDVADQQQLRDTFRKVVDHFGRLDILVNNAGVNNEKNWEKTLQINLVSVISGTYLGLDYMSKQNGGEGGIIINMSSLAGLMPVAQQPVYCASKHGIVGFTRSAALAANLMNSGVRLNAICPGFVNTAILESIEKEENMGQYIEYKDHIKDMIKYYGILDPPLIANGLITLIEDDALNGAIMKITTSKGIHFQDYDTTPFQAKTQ
#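 20 nM HPGD preincubated 15 min at room temperature with compound in 50 mM Tris-HCl pH 8, 0.01% Tween 20. Started with 1 mM NAD+ and 30 uM prostaglandin E2; NADH fluorescence (360/450 nm) read 5 times over 30-s intervals, last minus first.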
# Active calls of the source: *; ? = inconclusive; & = joins results of further samples; ! = repeats disagree. % is set by controls: 0 for no effect and ±100 for the full control effect; potency is the fitted concentration of half-maximal effect. Some of the compounds tested. The share of hits here may be higher or lower than overall.
HPGD inh | compound
-14% | Cc1cc2cc(C=C(C#N)C#N)c(Cl)nc2cc1C
-8% | CCCCNC(NCCCC)=C(S(=O)(=O)CC)S(=O)(=O)CC
-13% | CCC/C=C(\CCC)C(NC(=O)c1ccccc1)c1ccc(C(=O)OC)cc1 (stereo unspecified)
? | Cc1oc(-c2ccc3c(c2)OCCO3)cc1C(=O)O
-8% | NC(N)=NC(N)=Nc1ccc(C(=O)O)cc1
-1% | N#CN=C1SCCS1
-7% | CC12CCC(=O)N1c1ccccc1C(=O)N2c1ccccc1 (stereo unspecified)
-6% | Clc1cc2cccnc2c2ccccc12
-7% | CCOC(=O)CCc1c(C)c2ccc(OCc3ccc([N+](=O)[O-])cc3)cc2oc1=O
-6% | CC1(C)N=C(N)N=C(N)N1c1cccc(C(=O)O)c1
-16% | Cn1c(=O)oc2cc(S(=O)(=O)NCCCN3CCCC3=O)ccc21
-5% | O=C(Nc1nn[nH]n1)C12CC3CC(CC(C3)C1)C2
-28% | CCc1ccccc1SCc1noc(C(=O)NCC2CCCO2)c1C(=O)O (stereo unspecified)
-4% | CNS(=O)(=O)c1cccc(C(=O)OCc2csc(-c3ccccc3)n2)c1
-9% | COc1ccc(CCNC(=O)C2CCN(S(=O)(=O)c3ccc(-n4cnnn4)cc3)CC2)cc1OC
-5% | CCOC(=O)Cn1nc(-c2ccc(Cl)cc2)cc1N
-7% | CN(C)c1ccc(-c2ccncc2)cc1
-2% | CCOc1ccccc1N(CC(=O)Nc1ccccc1C(=O)NCc1ccco1)S(C)(=O)=O
-5% | Cc1cc(NC(=O)CSc2nnc(-c3ccco3)n2Cc2ccco2)no1
-15% | C=CC(C)N1C(=O)S/C(=C\c2ccc(N3CCOCC3)cc2C)C1=O (stereo unspecified)
-26% | CC(C)CSc1nc2ccccc2c(=O)[nH]1
-10% | O=C(CCc1ccccc1)NC1CCSC1=O (stereo unspecified)
-20% | CS/C(=N\S(=O)(=O)c1ccc(Cl)cc1)c1ccccc1
-12% | O=C(Nc1ccccc1Cl)c1ccccc1Cc1ccccc1
-12% | CCN(CC)S(=O)(=O)c1ccc(Cl)c(OC)c1
-6% | CCCCCC1NC(=O)NC1CCCCCC(=O)O (stereo unspecified)
? | c1coc(CN(Cc2ccco2)c2ncnc3c2oc2ccccc23)c1
18µM* | CCCOC(=O)c1ccc(NS(=O)(=O)c2cccs2)cc1
-2% | O=C(CSc1nnc(-c2ccccn2)n1-c1ccccc1)Nc1ccc2c(c1)OCO2
0% | O=C(CC1SC(N2CCCCC2)=NC1=O)Nc1cccc(C(=O)O)c1 (stereo unspecified)
14µM* | O=C(CSC1=NCCS1)Nc1cccc2ccccc12
-2% | CCOC(=O)C(C#N)C(Cc1ccccc1)c1ccco1 (stereo unspecified)
-8% | O=C(C1CCCO1)N1CCN(C(=S)Nc2ccc(F)cc2)CC1 (stereo unspecified)
-4% | CCOC(=O)c1nnn(-c2nonc2N)c1-c1ccc(C)cc1
? | CCN(Cc1cc2cc(OC)ccc2[nH]c1=O)C(=O)Cc1ccc(OC)cc1
-7% | CCN1C(c2ccccc2)=C(c2ccccc2)S/C1=C/C=C1\SC(=S)N(C)C1=O
4% | O=C(CCN1C(=O)C2C3C=CC(C3)C2C1=O)N1CCN(c2ccccc2F)CC1 (stereo unspecified)
-13% | CNC(=S)N/N=C(\C)c1ccc(-n2ccnc2)cc1
-4% | O=C(Cn1c(=O)oc2cc(S(=O)(=O)N3CCCC3)ccc21)NCc1ccc(F)cc1
-9% | Clc1ncnc2scc(-c3ccccc3)c12
-2% | COC(=O)N1C2(C=CC1(C)C(=O)NCc1ccc(N(C)C)cc1)CCCCC2 (stereo unspecified)
-11%&-2%&1% | C[N+](C)(C)CCOC(N)=O
? | COc1ccc(C2C=C(Nc3ccccc3)C(=O)N2c2ccccc2)cc1OC (stereo unspecified)
-21% | CCOc1cccc2cc(C(=O)N3CCN(C/C=C/c4ccccc4)CC3)c(=O)oc12
22µM*! | C[C@@](Cc1ccc(O)c(O)c1)(NN)C(=O)O
? | COC(=O)c1sccc1NC(=O)Cc1ccc(Br)cc1
-3% | Cc1cc(OCC(=O)NCCN2CCOCC2)ccc1Br
-5% | O=S(=O)(Nc1nc2ccccc2nc1NCc1ccco1)c1ccccc1
-8% | O=C(NCCCN1CCOCC1)c1c(F)cccc1F
? | CCOC(=O)c1c(NC(=O)c2ccc(Br)o2)sc(C)c1CC
-16% | FC(F)(F)c1cccc(Oc2ccc3c(C(F)(F)F)cc(C(F)(F)F)nc3n2)c1
-20% | COc1cc(OC)c(C(=O)Nc2ccc(N(C)C)cc2)cc1OC
5µM* | Cc1ccc(O)c(-c2cc(C(=O)NCc3ccncc3)[nH]n2)c1
-15% | CS(=O)(=O)N(CCc1ccccc1)CC(=O)N1CCN(c2ccccc2)CC1
-12% | CCOC(=O)C1C(=O)CC(C)(O)C(C(=O)OCC)C1c1ccc(C)s1 (stereo unspecified)
-1% | COc1ccc(C(=O)Nc2ccccn2)cc1

# Remaining list, next part:
HPGD inh | compound
-24% | COCOc1c2c(c(OCOC)c3c(OCOC)cccc13)/C(=N/N[S+](=O)([O-])c1ccc(C)cc1)C1=C2CCCC1
-26% | CCn1c(C)nc2cc(-c3nc4n(n3)Cc3ccccc3-4)ccc21
-24% | CSc1ccc(Cl)c(C(=O)OCC(=O)N2CC(C)OC(C)C2)c1 (stereo unspecified)
-4% | Cc1cc(N/N=C/c2ccccc2O)nc(-c2ccccc2O)n1
-17% | C/C(N)=C(/C#N)C(=O)CSc1nnc(Nc2c(C)cccc2C)s1
-5% | CCCNC(=O)NC(=O)COc1c(F)c(F)cc(F)c1F
-27% | COc1ccccc1C(=O)Oc1ccc2c(c1)O/C(=C\c1ccncc1)C2=O
-11% | Cc1ccc(N(CC(=O)NN=C2CCN(C)CC2)S(=O)(=O)c2ccccc2)c(C)c1
-27% | O=C(Nc1cc(F)cc(F)c1)c1ccc(NCCc2ccccc2)c([N+](=O)[O-])c1
-14% | CCOC(=O)c1[nH]c2c(c1-c1ccc(OC)cc1)C(=O)CC(c1ccc(OC)c(OC)c1)C2 (stereo unspecified)
? | Cc1nc2c(ccc3nc(NC(=O)c4ccc(S(=O)(=O)N(C)C)cc4)sc32)s1
-2% | Cc1ccc(N(Cc2ccc([N+](=O)[O-])cc2)C(=O)c2ccco2)cc1C
1% | CN(CC(=O)Nc1cccnc1)S(=O)(=O)c1ccccc1
-20% | O=C(CCC(=O)OCC(F)(F)C(F)F)NCc1ccccc1
-21% | CC(=O)c1sc(NC(=O)C=C(C)C)nc1C
-20% | COc1ccccc1C(=O)Nc1ccc(S(=O)(=O)N2CCc3ccccc32)cc1
-12% | Cn1c(=O)[nH]c(=O)c2c1nc(N1CCCC1)n2CCCSc1nnnn1-c1ccccc1
-4% | CCCCOC(=O)CSc1nnc(-c2cc(OC)c(OC)c(OC)c2)o1
-9% | CCOC(=O)NC(Nc1nnc(SCC)s1)(C(F)(F)F)C(F)(F)F
? | CCN1CC(c2ccccc2)C(c2ccc(Cl)cc2)=N1 (stereo unspecified)
-4% | Cc1ccc(CNC(=O)C2CC(c3cccc([N+](=O)[O-])c3)=NO2)o1 (stereo unspecified)
-5% | CC1CCN(c2nncc3ccccc23)CC1
32µM* | CC1CCCN(C(C(=O)NC2CCCCC2)c2cc3c(cc2[N+](=O)[O-])OCO3)C1 (stereo unspecified)
-1% | CCN(CC)S(=O)(=O)c1cc(C(=O)Oc2ccccc2OC)ccc1OC
-17% | Cc1ccc(NS(=O)(=O)c2ccc(C3CCCCC3)cc2)cc1
-10% | CCCS(=O)(=O)n1nc(-c2ccc(OC)cc2OC)cc1N
-24% | O=C(c1ccc(Cl)c(Cl)c1)N1CCC(=O)N(C(COCc2cccc(C(F)(F)F)c2)Cc2ccccc2)CC1 (stereo unspecified)
-17% | COc1ccc(NC(=O)C2C(=O)NC3(C)CC2c2ccccc2O3)cc1 (stereo unspecified)
-10% | CC(C)C(=O)NC(=S)Nc1ccccc1C(=O)Nc1ccccc1
-18% | CCOC(=O)c1ccc(NC(=O)CSc2n[nH]c(-c3ccncc3)n2)cc1
-9% | CCN(CC)S(=O)(=O)c1ccc(-c2nnc(SCC(=O)Nc3cc(OC)cc(OC)c3)o2)cc1
-7% | CCOC(=O)c1c(-c2ccc(OC)cc2)csc1/N=C/C1=C(O)CCCC1=O
-6% | COc1ccc(C2=NCCn3cccc32)c(OC)c1
-13% | COCC(C)NC(=O)c1cc(-c2cccc(OC)c2)on1 (stereo unspecified)
-2% | CCOC(=O)C1Oc2ccccc2C(c2ccc(C)cc2)=C1C(=O)OC (stereo unspecified)
-17% | O=C(CCCc1nc2ccccc2s1)N1CCN(S(=O)(=O)c2cccs2)CC1
? | COc1ccc(NC2CCN(C3CC(=O)N(c4ccc(F)c(Cl)c4)C3=O)CC2)cc1 (stereo unspecified)
-7% | COc1cc(C2C(=O)N(C3CCCC3)CC(=O)N2Cc2ccco2)ccc1OC(C)C (stereo unspecified)
2% | Cc1nn(-c2ccc(Cl)c(Cl)c2Cl)c(=O)c2ccccc12
-19% | COc1ccc(CC(=O)Nc2cc(C)ccn2)cc1
-18% | CC(C)Cn1c2c(c(=O)[nH]c1=O)C(C(F)(F)F)(C(F)(F)F)N=C(CCC1CCCCC1)N2
-3% | CCC12CN3CCN(CC(C3)/C1=N\NC(=O)c1ccc(C(C)(C)C)cc1)C2
? | CCC(=O)N1N=C(c2ccc(NS(C)(=O)=O)cc2)CC1c1ccc(C)cc1 (stereo unspecified)
-12% | CCOc1cc(S(=O)(=O)N2CCC(c3nc4ccccc4s3)CC2)c(OCC)cc1S(=O)(=O)N1CCCCC1
-6% | CCS(=O)(=O)N1CCC(C(=O)NCCc2ccccc2)CC1
-11% | CC1(C)CC(=O)C2=C(C1)Oc1ncn3nc(-c4cccnc4)nc3c1C2c1ccccc1 (stereo unspecified)
-6% | Cc1ccc(NC(=O)Cn2cc(S(=O)(=O)c3ccc(C)cc3)c(=O)c3cc(F)ccc32)cc1
-16% | CCOC(=O)Cn1c(=O)oc2cc(S(=O)(=O)NCCC(C)C)ccc21
? | CCOC(=O)C1CCN(C(=O)c2cc3cc4cc(OC)ccc4nc3o2)CC1
-30% | COc1cc2c(cc1NC(=O)C(C)Sc1cccc[n+]1[O-])oc1ccccc12 (stereo unspecified)
1% | O=C(NCCN1CCCC1)C1CC(=O)N(C2CCCCC2)C1 (stereo unspecified)
-12% | COc1nn(CC(=O)N2N=C(C)CC2(O)C(F)(F)F)cc1[N+](=O)[O-] (stereo unspecified)
-11% | CCCc1nnc(SCC(=O)N2CCCC(C)C2)n1CCCOC (stereo unspecified)
-6% | CCOC(=O)N1CCN(C(=O)c2ccc(Cl)c(S(=O)(=O)Nc3ccccc3)c2)CC1
-27% | Cc1sc2nc(CN(C(=O)NC3CCCCC3)C3CCCC3)[nH]c(=O)c2c1C
? | C/C(=C\c1ccccc1)C(=O)NC1CCSC1=O (stereo unspecified)

# (next part)
HPGD inh | compound
-4% | Cn1nc(C(F)(F)F)c(/C=N/OC(=O)c2ccccc2Cl)c1SCc1ccccc1Cl
-10%&-14% | N[C@H](C(=O)O)c1cccc(O)c1
8.9µM* | O=[N+]([O-])c1ccc(Sc2n[nH]c(-c3ccccc3)n2)nc1
-5% | COc1cccc(CNC(=O)CCS(=O)(=O)c2cccc3nsnc23)c1
-12% | CCOC(=O)C(=Cc1ccc(OCc2ccc([N+](=O)[O-])cc2)c(OC)c1)C(=O)OCC
-7% | CN(CCOC(=O)c1cccc(F)c1)Cc1ccccc1
? | COc1ccc(-c2cc3ccc(OCc4nn[nH]n4)cc3oc2=O)cc1
-6% | CCC(Cl)CC(Cl)C(Cl)C(Cl)C(Cl)C(C)Cl (stereo unspecified)

# A different layout for 19 compounds above.
SMILES	HPGD inh
Cc1cc2cc(C=C(C#N)C#N)c(Cl)nc2cc1C	-14%
CCCCNC(NCCCC)=C(S(=O)(=O)CC)S(=O)(=O)CC	-8%
CCC/C=C(\CCC)C(NC(=O)c1ccccc1)c1ccc(C(=O)OC)cc1 (stereo unspecified)	-13%
Cc1oc(-c2ccc3c(c2)OCCO3)cc1C(=O)O	?
NC(N)=NC(N)=Nc1ccc(C(=O)O)cc1	-8%
N#CN=C1SCCS1	-1%
CC12CCC(=O)N1c1ccccc1C(=O)N2c1ccccc1 (stereo unspecified)	-7%
Clc1cc2cccnc2c2ccccc12	-6%
CCOC(=O)CCc1c(C)c2ccc(OCc3ccc([N+](=O)[O-])cc3)cc2oc1=O	-7%
CC1(C)N=C(N)N=C(N)N1c1cccc(C(=O)O)c1	-6%
Cn1c(=O)oc2cc(S(=O)(=O)NCCCN3CCCC3=O)ccc21	-16%
O=C(Nc1nn[nH]n1)C12CC3CC(CC(C3)C1)C2	-5%
CCc1ccccc1SCc1noc(C(=O)NCC2CCCO2)c1C(=O)O (stereo unspecified)	-28%
CNS(=O)(=O)c1cccc(C(=O)OCc2csc(-c3ccccc3)n2)c1	-4%
COc1ccc(CCNC(=O)C2CCN(S(=O)(=O)c3ccc(-n4cnnn4)cc3)CC2)cc1OC	-9%
CCOC(=O)Cn1nc(-c2ccc(Cl)cc2)cc1N	-5%
CN(C)c1ccc(-c2ccncc2)cc1	-7%
CCOc1ccccc1N(CC(=O)Nc1ccccc1C(=O)NCc1ccco1)S(C)(=O)=O	-2%
Cc1cc(NC(=O)CSc2nnc(-c3ccco3)n2Cc2ccco2)no1	-5%

# Next compounds.
HPGD inh | compound
-8% | Cc1cc(C)nc(NS(=O)(=O)c2ccc(N3C(=O)c4ccccc4C3=O)cc2)n1
-12% | Cc1nc(-c2ccccc2)nc2[nH]c(-c3ccccc3)cc(=O)c12
-7% | O=C(N1CCN(c2ccccc2F)CC1)C1(c2cccs2)CCOCC1
-11% | O=C(COn1nnc2ccccc21)NCC1CCCCC1
0% | NC(=O)c1cccc([N+](=O)[O-])c1
